Vaccinia mCherry – qHTS for Stage-Specific Inhibitors of Vaccinia Orthopoxvirus: mCherry Reporter Primary qHTS | 310,000 compounds, 0.63% hits | Vaccinia virus mCherry reporter infection, fluorescence; about a quarter of the inactives have no number | Potency, µM (top dose mostly 36.5 µM), inactives show top-dose activity change, negative = inhibition, most hits filed as inhibitors; active = well fitted inhibition curve with a large enough effect; inconclusive = small, poorly fitted or top-dose-only effect; inactive = no such curve, though single readings can be large or run the other way; tested in A549 cells; also: nearly all actives have a fitted effect of over 35% in size; inactives centre near -10
VACV Venus inh – qHTS for Stage-Specific Inhibitors of Vaccinia Orthopoxvirus: Venus Reporter Primary qHTS | Vaccinia virus Venus reporter expression, fluorescence | Potency, µM (titrated, usually from 36.5 µM), without a hit: at the top dose activity change, negative = inhibition, hits mostly inhibitors | 330,000 compounds, 0.46% hits; active means well fitted inhibition curve with a large enough effect; inconclusive means small, poorly fitted or top-dose-only effect; inactive means no such curve, though single readings can be large or run the other way; tested in A549 cells; also: nearly all actives have a fitted effect of over 30% in size; inactives centre near -10
* marks the source's active call; other numbers are inactive results; & = joins results of further samples. % is scaled to controls: 0 for no effect and ±100 for the full control effect; potency is read from the fitted curve at half-maximal effect.

How did O=C(CN1CCN(S(=O)(=O)c2ccc(Cl)s2)CC1)NCc1ccc(Cl)cc1 do in these assays?
Vaccinia mCherry: inconclusive; VACV Venus inh: inconclusive

Results for CC(C)OC(=O)C1=C(N)N2C(=O)CSC2=C(C(=O)OC(C)C)C1 ?
Vaccinia mCherry: -7%; VACV Venus inh: -2%

What do the screens show for `CC(C)CN(C(=O)COc1ccc(C(C)(C)C)cc1)C1CCS(=O)(=O)C1` (centres undefined)?
Vaccinia mCherry: inactive; VACV Venus inh: -6%

What do the screens show for `COc1cc(NC(=O)c2ccccc2C)c(OC)cc1NC(=O)CN1CCOCC1`?
Vaccinia mCherry: -13%; VACV Venus inh: 5%

How did Cc1ccc(C(=O)NNS(=O)(=O)c2ccc(F)cc2)cc1 do in these assays?
Vaccinia mCherry: inactive; VACV Venus inh: -12%

How did Cc1cccc(N2C(=O)CN(Cc3sccc3C)C2=S)c1 do in these assays?
Vaccinia mCherry: -18%; VACV Venus inh: -12%

How did CCC(CC)C(=O)Nc1ccc(S(=O)(=O)Nc2nccs2)cc1 do in these assays?
Vaccinia mCherry: -8%; VACV Venus inh: 5%

Results for C=C1CCC2C(CC2(C)C)C(=O)CCC1O (centres undefined) ?
Vaccinia mCherry: 0%; VACV Venus inh: 0%

How did O=C(CCN1CCOCC1)NNC(=S)NC(=O)c1ccccc1 do in these assays?
Vaccinia mCherry: inactive; VACV Venus inh: -14%

Results for COc1ccc(C2=Nn3c(nnc3-c3ccccc3OC)SC2)cc1OC ?
Vaccinia mCherry: inconclusive; VACV Venus inh: -31%&-20%

What do the screens show for `COc1ccc(-c2cn3cccnc3n2)cc1NC(=O)CC(C)C`?
Vaccinia mCherry: -14%; VACV Venus inh: -16%

How did Cc1ccc(F)cc1C(=O)N1CCOCC1c1cc(C(=O)NCc2ccccc2)no1 (centres undefined) do in these assays?
Vaccinia mCherry: 28%; VACV Venus inh: -9%

Results for O=C(N/N=C/c1ccccc1)NC1CCCCC1 ?
Vaccinia mCherry: -12%; VACV Venus inh: -24%

What do the screens show for `CN(Cc1ccccc1)C(=O)c1ccc(NC(=O)Cc2ccc(NC(=O)C3CCN(C(=O)c4ccccc4)CC3)cc2)cc1`?
Vaccinia mCherry: -20%; VACV Venus inh: -12%

What do the screens show for `O=C1C2C(c3ccccc3)C=CC(c3ccccc3)C2C(=O)N1C1CCCCC1` (centres undefined)?
VACV Venus inh: -7%

What do the screens show for `CC1CN(C(=O)c2ccc(Oc3ccccc3)cc2)CC(C)O1` (centres undefined)?
Vaccinia mCherry: inactive; VACV Venus inh: -16%

How did O=C1NCN(c2ccccc2)C12CCN(C(CCc1ccccc1)c1nnnn1-c1ccc3c(c1)OCCO3)CC2 (centres undefined) do in these assays?
Vaccinia mCherry: 4%; VACV Venus inh: -22%

What do the screens show for `CN1CCN(C2CN(C3CCCC3)S(=O)(=O)C2)CC1` (centres undefined)?
Vaccinia mCherry: 21%; VACV Venus inh: -8%

What do the screens show for `CCCc1cc(=O)oc2c(C)c3c(cc12)CN(CCc1ccc(Cl)cc1)CO3`?
Vaccinia mCherry: 10%; VACV Venus inh: -1%

What do the screens show for `Cc1cc(N)n(Cc2cccs2)n1`?
Vaccinia mCherry: inactive; VACV Venus inh: -4%

How did Cc1ccc(N2C(=O)C(Cl)=C(N3CCOCC3)C2=O)cc1Cl do in these assays?
Vaccinia mCherry: -17%; VACV Venus inh: -9%

What do the screens show for `N#CC[C@H](Cc1ccccc1)N1CC[C@@H](NC(=O)OCc2ccccc2)CCC1=O`?
Vaccinia mCherry: inactive; VACV Venus inh: -1%&-5%

What do the screens show for `Cc1cccc(CSc2cccc3cccnc23)c1`?
Vaccinia mCherry: inconclusive; VACV Venus inh: inconclusive

What do the screens show for `Cc1nc2cccc(C(=O)NC3CCCCC3)c2o1`?
Vaccinia mCherry: -23%; VACV Venus inh: -10%

How did FC(F)(F)c1cccc(OCc2nnc3n2CCC3)c1 do in these assays?
Vaccinia mCherry: -3%; VACV Venus inh: 5%

How did COc1cc(NC(=O)c2cccs2)c(C(=O)OCC(=O)NC(=O)NC(C)(C)C)cc1OC do in these assays?
Vaccinia mCherry: 0%; VACV Venus inh: -17%

Results for COc1cc(-c2nn3c(-c4cccc(C)c4)nnc3s2)cc(OC)c1OC ?
Vaccinia mCherry: -8%; VACV Venus inh: -20%

What do the screens show for `COCCNC(=O)C1Nc2ccc(OC(F)(F)F)cc2C2C=CCC12` (centres undefined)?
Vaccinia mCherry: -29%; VACV Venus inh: -18%

What do the screens show for `CCn1cc(C(=O)NCc2cccs2)c(=O)c2ccc(C)nc21`?
VACV Venus inh: -9%

What do the screens show for `CS/C(Nc1cc(Cl)ccc1Cl)=C(/C#N)C(=O)c1ccco1`?
Vaccinia mCherry: -24%; VACV Venus inh: -18%

How did O=C(NCC1CCCO1)c1[nH]c(C(F)(F)F)nc1-c1ccccc1 (centres undefined) do in these assays?
Vaccinia mCherry: 8%; VACV Venus inh: -12%

How did O=C(Cc1ccccc1)NNC1CC(=O)N(c2ccc(Br)cc2)C1=O (centres undefined) do in these assays?
Vaccinia mCherry: -10%; VACV Venus inh: 0%

Results for Cn1c(=O)n(C)c2cc(CNCc3ccccc3Cl)ccc21 ?
Vaccinia mCherry: -10%; VACV Venus inh: -8%

Results for CCN(CC)CCSc1nc2ccccc2c(=S)n1-c1ccccc1 ?
Vaccinia mCherry: -16%; VACV Venus inh: -5%

How did Cc1nnc2nc(-c3ccccc3)nc(-c3ccccc3)n12 do in these assays?
Vaccinia mCherry: -18%; VACV Venus inh: -26%

What do the screens show for `COc1cc(C(=O)NCC(c2ccco2)N2CCc3ccccc32)cc(OC)c1OC` (centres undefined)?
Vaccinia mCherry: inconclusive; VACV Venus inh: -15%

How did CCOCCCNC(=O)C(c1ccc(OC)cc1)N(Cc1cccs1)C(=O)c1ccccc1O (centres undefined) do in these assays?
Vaccinia mCherry: -4%&-6%; VACV Venus inh: -7%&-12%

What do the screens show for `Cc1cc(Cl)ccc1OCC(=O)Nc1ccccc1C(=O)N1CCOCC1`?
Vaccinia mCherry: -12%; VACV Venus inh: -16%

What do the screens show for `CCOc1ccc(Cl)cc1/C=N/NC(=O)CNC(=O)c1ccccc1`?
Vaccinia mCherry: -7%; VACV Venus inh: -9%

How did CSc1nn(Cc2ccc(F)cc2)c(N(C(C)=O)C(C)=O)c1S(=O)(=O)c1ccccc1 do in these assays?
Vaccinia mCherry: -35%; VACV Venus inh: -24%

Results for O=C(Cn1cnc2cc(Cl)ccc2c1=O)Nc1ccc2c(c1)OCO2 ?
VACV Venus inh: 0%

How did c1cncc(-c2ccnc3ncnn23)c1 do in these assays?
Vaccinia mCherry: inactive; VACV Venus inh: 1%

What do the screens show for `Cc1ccc(NC(=O)COC(=O)Cc2c[nH]c3ccccc23)cc1F`?
Vaccinia mCherry: inactive; VACV Venus inh: -13%

What do the screens show for `CC(C)N(Cc1nc(-c2ccccc2)no1)C(=O)C(Cl)(Cl)Cl`?
Vaccinia mCherry: -12%; VACV Venus inh: -8%

How did CCS(=O)(=O)N1CCc2cc(C(=O)Nc3cc([N+](=O)[O-])ccc3C)ccc21 do in these assays?
Vaccinia mCherry: -8%; VACV Venus inh: -3%

Results for Cc1cc(C)nc(NS(=O)(=O)c2ccc(N)cc2)n1 ?
Vaccinia mCherry: -5%; VACV Venus inh: -8%&-8%

Results for CN1N/C(=C\c2ccccc2)N=C2C(=O)N(C)C(=O)N=C21 ?
Vaccinia mCherry: 7.9µM*; VACV Venus inh: 8.9µM*

How did COc1ccc(OC)c2c1cc(C(=O)N[C@@H](C)C(=O)N[C@@H](C(=O)O)c1ccccc1)n2C do in these assays?
Vaccinia mCherry: -13%; VACV Venus inh: -23%

How did COc1ccc(C(CNC(=O)c2cc(S(=O)(=O)Nc3cccc(C)c3)ccc2C)N2CCCC2)cc1 (centres undefined) do in these assays?
Vaccinia mCherry: -11%; VACV Venus inh: -28%

How did CCC(c1nnnn1-c1c(C)cccc1C)N1CCN(c2cccc(C(F)(F)F)n2)CC1 (centres undefined) do in these assays?
Vaccinia mCherry: -13%; VACV Venus inh: 0%

Results for CCc1ccc(NC(=O)c2nn(-c3ccc(C)cc3)c(=O)n(C)c2=O)cc1 ?
Vaccinia mCherry: -14%; VACV Venus inh: -13%

What do the screens show for `CN(CCC#N)C(=O)COc1ccc(Br)cc1Cl`?
Vaccinia mCherry: -7%; VACV Venus inh: -10%

How did Cc1ccc(C)c(Cn2nnc3c(=O)[nH]c(C(=O)NCc4ccco4)nc32)c1 do in these assays?
Vaccinia mCherry: -7%; VACV Venus inh: -10%

Results for CCCOc1ccccc1N/C(=N/c1nc(C)cc(C)n1)NC(=O)COc1ccc(OC)cc1 ?
VACV Venus inh: -26%

What do the screens show for `CCOC(=O)C1=C(CN2CCC(C)CC2)NC(=O)NC1c1ccc(F)cc1` (centres undefined)?
Vaccinia mCherry: 5%; VACV Venus inh: 3%

What do the screens show for `N#CCCn1c(-c2nonc2NC(=O)c2ccccc2Cl)nc2ccccc21`?
Vaccinia mCherry: -7%; VACV Venus inh: -3%

What do the screens show for `CC(=O)OCCNc1cc(Sc2nc3ccccc3[nH]2)c2nonc2c1[N+](=O)[O-]`?
Vaccinia mCherry: inconclusive; VACV Venus inh: 112µM*

How did O=C(NCCc1ccc(F)cc1)C1CCC(=O)N(CC2CCCCC2)C1 (centres undefined) do in these assays?
Vaccinia mCherry: -7%; VACV Venus inh: -20%

What do the screens show for `O=C(CN(C(=O)CCC(=O)Nc1nccs1)c1cccc(F)c1)NCc1ccc(F)cc1`?
Vaccinia mCherry: -1%; VACV Venus inh: -7%

Results for CCOC(=O)CCCCCNC(=O)c1c(O)[nH]c(=O)[nH]c1=O ?
Vaccinia mCherry: -2%; VACV Venus inh: 0%

How did CCOc1ccc(CN(C)C(=O)CNC(=O)C2CCCCC2)cc1 do in these assays?
Vaccinia mCherry: 15%; VACV Venus inh: -10%

How did O=C(O)Cn1cc(/C=C2\SC(=O)N(c3ccccc3)C2=O)c2ccccc21 do in these assays?
Vaccinia mCherry: inactive; VACV Venus inh: -4%

What do the screens show for `COC(=O)C(C)n1cnc2c(nnn2-c2cccc(OC)c2)c1=O` (centres undefined)?
Vaccinia mCherry: -10%; VACV Venus inh: -12%

What do the screens show for `CCOc1ccc2c(c1)ncn2Cc1ccccc1`?
Vaccinia mCherry: inactive; VACV Venus inh: -6%

What do the screens show for `Cc1c(C(=O)c2cccc3ccccc23)c2cccc3c2n1[C@H](CN1CCOCC1)CO3`?
Vaccinia mCherry: -25%; VACV Venus inh: inconclusive

Results for Cc1cc(Cl)ccc1Nc1nc(NCc2ccco2)nc2nccnc12 ?
Vaccinia mCherry: -3%; VACV Venus inh: -11%

What do the screens show for `O=c1c2ccc(Cl)cc2[nH]c(=S)n1CCCN1CCOCC1`?
Vaccinia mCherry: -14%; VACV Venus inh: 0%

How did Cc1ccc(S(=O)(=O)N2C[C@H]3[C@H]4C(=O)N(C5CCCCC5)C(=O)[C@H]4CC(=O)[C@H]3[C@@H]2c2cccc3ccccc23)cc1 do in these assays?
Vaccinia mCherry: inactive; VACV Venus inh: -6%

Results for CCOc1ccc(C(C)NC(=S)NC2CCCCC2)cc1OCC (centres undefined) ?
Vaccinia mCherry: -18%; VACV Venus inh: -13%

What do the screens show for `CCOC(=O)c1nncc(-c2ccccc2)n1`?
Vaccinia mCherry: inactive; VACV Venus inh: -11%

What do the screens show for `CC(=O)Nc1ccccc1-c1nc2ccccc2n(C(C)C(=O)Nc2cc(Cl)ccc2C)c1=O` (centres undefined)?
Vaccinia mCherry: -12%; VACV Venus inh: 7%

What do the screens show for `COc1ccc(CC(=O)Nc2cccc(SC)c2)cc1`?
Vaccinia mCherry: -17%; VACV Venus inh: -15%

Results for COc1cc2nc(CN(CCC(C)C)Cc3nc4cc(OC)c(OC)cc4c(=O)[nH]3)[nH]c(=O)c2cc1OC ?
VACV Venus inh: -15%

How did COc1ccc(S(=O)(=O)N2CCCCCC2)cc1C(=O)NCc1ccccc1Cl do in these assays?
Vaccinia mCherry: -5%; VACV Venus inh: -23%

Results for O=C(/C=C/Nc1ccc(S(=O)(=O)Nc2ncccn2)cc1)c1ccc(Cl)c(Cl)c1 ?
Vaccinia mCherry: -12%; VACV Venus inh: 2%
